Screening results as filed in PubChem.
Sfp inh: Sfp phosphopantetheinyl transferase inhibition; Q9F4F7; Biochemical Sfp PPTase activity, qHTS; Potency, µM, inactives show max response, negative = inhibition, hits mostly inhibitors; 310,000 tested, 3.5% active; AID 1490; active = well fitted inhibition curve with a large enough effect; inconclusive = small, poorly fitted or top-dose-only effect, or another doubt; inactive = no such curve, though single readings can be large or run the other way;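 note: the enzyme is Sfp with the accession as filed and its product quenches rhodamine fluorescence; potency is the fitted concentration of half-maximal effect; 0% = enzyme reaction without inhibitor and -100% = no enzyme wells; top concentration of the series not given in the record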
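Compounds were incubated with enzyme (final 15 nM) for 15 min at room temperature before substrate addition started the reaction. Fluorescence at 525 nm excitation, 598 nm emission was recorded immediately and after 30 minutes.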
gsp agonist: activates gsp, the McCune-Albright syndrome mutation. gsp mutant cells, cAMP HTRF, 30 min; control for the full effect not named in the record. Potency, µM (doses to about 76.9 µM), for inactives: top-dose activation (cAMP increase), most hits filed as activators. 340,000 tested, 0.13% active. AID 624287; active = well fitted activation curve with a large enough effect; inconclusive = small, poorly fitted or top-dose-only effect, or another doubt; inactive = no such curve, though single readings can be large or run the other way; cell line not stated here;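 note: phosphodiesterase inhibitor Ro 20-1724 added with compounds to block cAMP breakdown; potency is the fitted concentration of half-maximal effect; nearly all actives have a fitted effect of over 60% in size; about a fifth of the inactives were tested at one dose only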
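Cells stably selected in G418 were plated at 2000/well, grown 16-24 hr, then given compounds in DMSO with the PDE inhibitor […] (300 uM solution added) for 30 min at 37C; cAMP was read by HTRF.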
ClpP mod: qHTS Assay for Activators of ClpP; ATP-dependent Clp protease proteolytic subunit (Bacillus subtilis (strain 168)), P80244; purified B. subtilis ClpP, FRET peptide cleavage, 20 min; Potency, µM (highest dose often 57.5 µM), without a hit: top-dose activity change, negative = active; 340,000 tested, 1.9% active; active = well fitted falling curve with a large enough effect; inconclusive = small, poorly fitted or top-dose-only effect; inactive = no such curve, though single readings can be large or run the other way; note: potency is the fitted concentration of half-maximal effect; the source files actives as falling curves though it sought activators and does not explain the sign; nearly all actives have a fitted effect of over 65% in size; many hits overshoot -100%
Target sequence (P80244 whole entry, looked up): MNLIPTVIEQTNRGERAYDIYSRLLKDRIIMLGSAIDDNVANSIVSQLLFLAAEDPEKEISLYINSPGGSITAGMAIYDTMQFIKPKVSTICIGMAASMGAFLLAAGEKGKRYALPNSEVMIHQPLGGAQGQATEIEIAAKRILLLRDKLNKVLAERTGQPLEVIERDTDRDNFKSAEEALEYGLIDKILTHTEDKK
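ClpP 10 microg/mL final, pH 8 Tris/KCl buffer with BSA, glycerol, Tween-20; compound pinned in; FRET-FV substrate; RT 20 min; Ex320/Em430; ΔFRET vs ADEP 5.8 microM, DMSO, no enzyme.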
gsp antag: antagonizes gsp, the McCune-Albright syndrome mutation. Potency, µM (titrated, usually from 76.9 µM), for the others: at the top dose activity change, negative = inhibition, most hits filed as inhibitors. gsp-mutant cells, cAMP HTRF, 30 min; control for the full effect not named in the record. AID 624288. 340,000 tested, 0.4% active; active = falling curve of any shape with a large fitted effect; inconclusive = falling curve, mostly with a smaller effect; inactive = flat or rising curve; cell line not stated here;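 note: intracellular cAMP measured with PDE inhibitor Ro 20-1724 present during compound exposure; potency is the fitted concentration of half-maximal effect; % is set by controls: 0 for no effect and ±100 for the full control effect; nearly all actives have a fitted effect of over 65% in size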
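Cells in G418 medium, seeded 16-24 h, 37C; buffer exchange to DPBS + 1 mM CaCl2, 0.5 mM MgCl2, 0.05% BSA; cpds in DMSO + […] (300 uM stock), 30 min 37C; HTRF cAMP detection.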
TRPV1 PAM: potentiators of human vanilloid receptor 1 (TRPV1) | TRPV1-expressing cells, Fluo-8 calcium influx, capsaicin EC20 potentiation; host cell line not named in the record; control for the full effect not named in the record | potentiation, % at 8.33 µM | 320,000 tested, 0.02% active | AID 540277; active means potentiation above 80%; inconclusive means 30% to 80%; inactive means below 30%; note: 0% is about no effect
Target sequence (Q8NER1 whole entry, looked up): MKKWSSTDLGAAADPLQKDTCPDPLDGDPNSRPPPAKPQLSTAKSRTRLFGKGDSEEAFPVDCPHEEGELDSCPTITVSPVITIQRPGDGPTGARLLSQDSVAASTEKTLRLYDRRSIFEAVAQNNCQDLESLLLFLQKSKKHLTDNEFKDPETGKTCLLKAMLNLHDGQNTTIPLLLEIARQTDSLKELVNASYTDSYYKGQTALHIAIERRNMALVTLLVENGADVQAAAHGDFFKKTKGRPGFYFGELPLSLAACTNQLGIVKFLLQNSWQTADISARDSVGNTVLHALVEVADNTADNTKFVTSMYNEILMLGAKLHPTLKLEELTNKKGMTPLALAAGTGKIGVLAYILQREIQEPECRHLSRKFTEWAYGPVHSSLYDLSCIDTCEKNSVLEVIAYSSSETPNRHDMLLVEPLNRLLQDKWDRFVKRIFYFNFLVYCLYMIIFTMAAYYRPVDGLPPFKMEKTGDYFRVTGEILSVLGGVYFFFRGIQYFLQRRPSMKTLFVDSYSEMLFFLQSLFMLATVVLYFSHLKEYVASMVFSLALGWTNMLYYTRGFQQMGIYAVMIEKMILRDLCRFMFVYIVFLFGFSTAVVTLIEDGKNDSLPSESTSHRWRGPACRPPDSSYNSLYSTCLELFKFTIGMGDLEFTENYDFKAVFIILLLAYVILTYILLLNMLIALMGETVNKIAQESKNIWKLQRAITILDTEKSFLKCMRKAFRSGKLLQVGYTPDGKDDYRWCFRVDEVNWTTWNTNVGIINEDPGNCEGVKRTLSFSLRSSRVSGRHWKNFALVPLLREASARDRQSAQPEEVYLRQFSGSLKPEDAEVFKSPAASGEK
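TRPV1-expressing cells were cultured overnight at 35.5C and loaded with Fluo-8 calcium dye for 40 to 90 min at room temperature. After a 10 s baseline, compound was added and calcium influx was read kinetically for 3 min (ex 480/em 520 nm).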
TRPML1 inh: inhibitors of human TRPML1 channel | AID 624415 | 390,000 tested, 0.02% active | TRPML1-inducible cells, Ca2+ dye fluorescence, FDSS; stronger effect = lower value; inhibition of EC80 agonist-evoked calcium signal | activity change, negative = inhibition, % (test concentration not listed) | Q9GZU1; in the data active means activity change below about -50%; inconclusive means about -30% to -50%; inactive means above about -30%;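 note: stimulus is agonist 54-4 at its EC80 concentration; % is set by controls: 0 for no effect and ±100 for the full control effect; compound concentration not given in the record; the text of the record puts the active cut at -80%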
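Calcium fluorescence in TRPML1-DL cells induced overnight with Tet: a 110 s read after compound pin addition, then a 110 s antagonist read after challenge with 54-4 at 4 uM final (EC80).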
Menin-MLL FL inh: displaces fluorescein MLL peptide from human menin; Fluorescence polarization, fluorescein-MLL peptide displacement from menin; FP activity change, % at 61.4 µM; 290,000 tested, under 10 active; inconclusive = falling polarisation curve, or a change in total fluorescence; inactive = total fluorescence flat and polarisation flat or rising; no compound was filed as active; the % refers to the polarisation; negative = inhibition;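 note: % of control where 0% means no effect; inhibitors lower the polarisation; unlabelled MLL peptide was the positive control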
* = called active by the depositor; ? = inconclusive; nt = no result given; & = joins results of further samples; [ ] = another dose, or the depositor's remark.

The line under a structure holds: Sfp inh | gsp agonist | ClpP mod | gsp antag | TRPV1 PAM | TRPML1 inh | Menin-MLL FL inh
> CCOC(=O)C1=C(N)n2c(s/c(=C\c3ccco3)c2=O)=C(C(=O)OCC)C1c1ccco1 (stereo not drawn)
 : -13.0% | -7.3% | -0.1% | -8.5% | -9.7 | 2.5 | ?
> CC1CCN(c2ccc(NC(=O)C3CCCN3S(=O)(=O)c3ccc(F)cc3)cc2)CC1 (stereo not drawn)
 : nt | -20.9% | -1.4% | -5.6% | 1.1 | -7.1 | nt
> C/C=C\C=C/C(=O)Nc1cccc(C2=NOC3(C2)C[C@@H](C(N)=O)N(C(=O)COc2ccc(Cl)cc2)C3)c1 (stereo partly drawn)
 : 20µM* | 23.3% | -0.8% | -5.9% | -17.6 | -24.5 | ?
> Cc1ccc2[nH]c3c(N4CCN(Cc5ccc6c(c5)OCO6)CC4)ncnc3c2c1
 : -8.3% | nt | nt | nt | -6.3 | nt | -1.7
> COc1cc(C(=O)OCC(=O)NCc2ccc(F)cc2)ccc1OCC(C)C
 : 6.5% | 24.3% | -1.8% | -18.5% | -8.1 | 10.8 | 1.2
> CC1=Nc2cc(C(=O)NCCCOC(C)C)ccc2Sc2ccc(C)cc21
 : -17.7% | 1.3%[15.4 µM] | nt | 20.3% | 15.9 | -1.3 | 9.5
> Cc1cccc(NC(=O)CC2C(=O)NCCN2C(=S)Nc2ccccc2)c1 (stereo not drawn)
 : 12.2% | -30.6%[inhibitor] | -2.5% | -7.0% | 9.2 | 4.1 | -0.9
> Cc1nn(-c2ccccc2)nc1C(=O)Nc1ccc2c(c1)OCCO2
 : -8.8% | 9.9% | -9.0% | -18.6% | -6.7 | -7.2 | nt
> O=C(CCCCCN1C(=O)c2ccccc2C1=O)NCc1ccccn1
 : -21.5% | -4.5% | -0.5% | 6.2% | nt | -27.2 | -7.7
> CCc1ccc(NC(=O)CSc2n[nH]c(=O)n2C2CC2)cc1
 : nt | -62.0%[inhibitor] | 3.2% | 10.4% | -3.2 | 2.9 | nt
> Cc1ccc(S(=O)(=O)NC(C)C(c2cccs2)N2CCN(c3ccccc3)CC2)cc1 (stereo not drawn)
 : 23.7% | ? | -7.7% | -4.3% | 20.2 | 13.5 | 4.6
> C=CCn1c(=O)c2c(nc3n2CC(C)CN3CCc2ccccc2)n(C)c1=O (stereo not drawn)
 : 8.2% | 7.0% | 1.4% | -12.9% | 4.8 | -2.1 | 1.0
> O=C(NC1CC1)C1CC(=O)N(C2CCCCC2)C1 (stereo not drawn)
 : 5.6% | -13.9% | -0.4% | 5.0% | nt | 19.9 | 5.1
> CC(C)(CNCc1ccccc1)NS(=O)(=O)c1ccccc1
 : nt | -1.8% | -0.5% | 14.1% | nt | 18.2 | nt
> CC(C)Cc1nnc(NC(=O)CCC(=O)Nc2ccc(Cl)cc2)s1
 : -4.7% | -1.1% | nt | 8.0% | 7.4 | 33.1 | 3.8
> Cc1nnsc1NC(=O)OCc1ccc(C(F)(F)F)cc1
 : 13.2% | 25.8% | -27.3% | -7.8% | 1.8 | 8.4 | 8.4
> CC(=O)N1CCN(c2ccc(NC(=O)c3ccc(C(C)(C)C)cc3)cc2)CC1
 : -17.1% | -6.1% | 0.5% | -11.3% | -6.0 | -1.7 | 2.0
> CC1(OC(=O)C2CCCC2)C(=O)C=C2C=C(c3ccsc3)N(CCc3ccccn3)C=C2C1=O (stereo not drawn)
 : -6.0%&-24.0% | nt | -1.0% | -10.8% | -10.4 | 5.5 | ?
> O=C(NC(=S)NCC1CCCO1)c1cccs1 (stereo not drawn)
 : 18.4% | -27.0% | -1.3% | 17.6% | -10.7 | -4.0 | 4.8
> Cc1ccc(NC(=O)c2ccc3c(c2)OCO3)cc1S(=O)(=O)N1CCOCC1
 : nt | 4.5% | -3.1% | -4.9% | -11.1 | -0.3 | nt
> Cc1c(NC(=O)c2cnn3c2NC(c2ccccc2)CC3C(F)(F)F)c(=O)n(-c2ccccc2)n1C (stereo not drawn)
 : 10.8% | -33.8%[inhibitor] | -1.8% | -5.6% | 4.0 | -6.3 | 1.6
> O=C(O)C1C2C=CC(C2)C1C(=O)Nc1cccc(C(F)(F)F)c1 (stereo not drawn)
 : -2.5% | -4.5%[15.4 µM] | -1.1% | 6.3% | 13.5 | -3.4 | -4.1
> CN(C(=O)Cn1cccc1C1=NC(c2ccccc2)CO1)c1ccccc1 (stereo not drawn)
 : 0.2% | -1.6% | 0.8% | 2.6% | ? | -6.3 | 0.2
> O=C1c2ccccc2C(=O)c2[nH]c(=O)[nH]c21
 : -2.3% | -0.9% | nt | ? | 27.1 | -11.5 | -10.8
> Cc1nc(C)c(-c2csc(Nc3ccc(N)cc3)n2)s1
 : -29.1% | -26.0% | 0.9% | -14.4% | -2.6 | nt | 1.3
> Cn1c(N)c(C(=O)COC(=O)CCOc2ccc(C(C)(C)C)cc2)c(=O)n(C)c1=O
 : -4.0% | 1.8%[15.4 µM] | nt | -6.1% | -16.8 | 2.6 | -2.6
> CN(Cc1ccco1)C(=O)C1CCN(c2nnc(-n3cccc3)s2)CC1
 : 10.2% | -13.5% | -0.4% | -0.6% | -39.8 | 1.9 | 3.2
> O=C(/C=C/c1ccccc1)Nc1ccc2c(c1)OCCO2
 : -3.4% | -0.7%[15.4 µM] | nt | -4.9% | -15.8 | -0.1 | -0.1
> Cc1ccc(C=NCc2ccncc2)c(O)c1
 : -4.5% | -24.5% | 1.0% | -8.1% | 1.9 | -1.9 | 3.1
> CC(C)(C)Sc1ccc([N+](=O)[O-])cc1C(=O)Nc1ccncc1
 : 13.2% | 28.4%[15.4 µM] | nt | 6.0% | -1.8 | -17.6 | 4.9
> COc1ccc(CC(=O)NNc2ncnc3c2cnn3-c2ccc(C)cc2)cc1OC
 : 4.7% | -0.9% | -6.1% | -0.5% | 0.3 | -3.8 | 0.4
> Cc1ccc(S(=O)(=O)NNC(=O)CCC(=O)Nc2ccccc2)cc1
 : 0.8% | 0.9% | -1.8% | 2.5% | 3.8 | 3.3 | 0.5
> O=C(Cn1nnc(-c2ccc(OCc3ccccc3F)cc2)n1)N1CCOCC1
 : -5.2% | 2.8% | 0.3% | 6.7% | 18.5 | 0.8 | 1.5
> O=C(/C=C/c1ccccc1)NCCSCc1ccccc1Cl
 : -0.4% | -8.4% | 0.5% | -12.5% | -35.5 | 2.7 | -1.6
> COc1ccc(CNC(=O)COC(=O)c2nc3nc(C)cc(C)n3n2)cc1
 : nt | 27.1% | -7.7% | 1.2% | 1.1 | -11.2 | nt
> COc1cccc(Oc2cc(NN3CCCCC3)c([N+](=O)[O-])cc2[N+](=O)[O-])c1OC
 : 2.4% | 22.0% | 2.4% | -9.4% | 13.5 | -3.6 | 0.8
> O=C(c1ccccc1F)N1CCCC(C(=O)N2CCc3ccccc3C2)C1 (stereo not drawn)
 : 19.5% | 0.8%[15.4 µM] | 0.1% | -6.3% | -12.8 | -6.5 | 5.4
> Cc1onc(-c2ccc(Cl)cc2)c1-c1ccnn1S(=O)(=O)c1cccc(C(F)(F)F)c1
 : -2.1% | -3.5%[15.4 µM] | nt | -12.6% | -0.9 | 3.0 | -1.2
> CCn1cc(/C=C(\NC(=O)c2ccccc2F)C(=O)N2CCOCC2)c2ccccc21
 : 3.2% | -41.8%[inhibitor] | -3.6% | -11.4% | 11.6 | -18.9 | 5.2
> COCc1nnc(NC(=O)c2sc3ccccc3c2Cl)s1
 : 2.9% | 8.0% | 0.9% | ? | 18.7 | -6.0 | 6.3

An excerpt from above in order of the Menin-MLL FL inh value, descending:
compound	Sfp inh	gsp agonist	TRPML1 inh	Menin-MLL FL inh
Cc1c(NC(=O)c2cnn3c2NC(c2ccccc2)CC3C(F)(F)F)c(=O)n(-c2ccccc2)n1C (stereo not drawn)	10.8%	-33.8%[inhibitor]	-6.3	1.6
Cc1ccc(S(=O)(=O)NNC(=O)CCC(=O)Nc2ccccc2)cc1	0.8%	0.9%	3.3	0.5
CN(C(=O)Cn1cccc1C1=NC(c2ccccc2)CO1)c1ccccc1 (stereo not drawn)	0.2%	-1.6%	-6.3	0.2

Next part.
The line under a structure holds: Sfp inh | gsp agonist | ClpP mod | gsp antag | TRPV1 PAM | TRPML1 inh | Menin-MLL FL inh
> CCc1ccc(N(C(=O)c2csnn2)C(C(=O)NC(C)(C)C)c2ccncc2)cc1 (stereo not drawn)
 : 9.8% | 2.6% | 0.3% | -17.6% | -8.3 | -10.7 | 1.2
> Cc1ccc(NC(=O)CCCn2c(=O)[nH]c3ccsc3c2=O)cc1
 : 2.6% | -1.3%[15.4 µM] | ? | 8.1% | -6.3 | 9.1 | 4.7
> CCC1CCCCN1CCNC(=O)C1CCCN(S(=O)(=O)c2cccc3nsnc23)C1 (stereo not drawn)
 : -1.3% | 6.7% | -0.1% | 13.1% | -2.2 | 8.4 | nt
> NC(=O)C1CCN(C2OC(=O)c3ccccc32)CC1 (stereo not drawn)
 : -2.4% | 30.8% | 2.0% | 12.9% | -1.0 | -7.0 | 5.1
> Cc1nc2sccn2c(=O)c1S(=O)(=O)NCc1ccccc1
 : 14.7% | -59.0% | ? | 9.4% | 1.1 | -4.7&4.4 | 2.1
> Cc1nn(C)c(C)c1NC(=O)COc1ccc(F)cc1Br
 : nt | 21.8% | nt | 13.9% | nt | 6.1 | nt
> O=C(O)c1cc(NS(=O)(=O)c2cccs2)cc(NS(=O)(=O)c2cccs2)c1
 : nt | 0.4% | 1.2% | 10.6% | 6.5 | 6.4 | nt
> COc1ccc(Cn2nnc3ccccc32)cc1
 : nt | nt | -0.1% | 0.3% | ? | 8.1 | nt
